# High-throughput results (PubChem)
# FGF22 binding – binders of recombinant human FGF22 by thermal shift; Q9HCT0; actives 1.5% (n = 340,000); SYPRO orange fluorescence; percent of sucrose octasulfate shift, DMSO zero; calls only at 9.99 µM;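 active means melting point raised past a set limit in the mean and every replicate; inconclusive means no clear call; three in four hits are not shown here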
# Target sequence (Q9HCT0 whole entry, looked up): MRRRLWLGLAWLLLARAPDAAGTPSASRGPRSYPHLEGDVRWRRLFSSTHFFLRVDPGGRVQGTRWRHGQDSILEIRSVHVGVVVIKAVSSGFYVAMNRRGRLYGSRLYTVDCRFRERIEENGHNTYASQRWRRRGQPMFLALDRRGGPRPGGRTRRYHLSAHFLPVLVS
# A1 inh – inhibitors of the anti-apoptotic protein A1, read as caspase activation; MEF A1-2A-BIM cells, Caspase-Glo 3/7 luminescence, 3 h; percent of clofoctol response, vehicle zero; caspase activation, % (no concentration beside the values); actives 0.066% (n = 330,000); AID 2462;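 active means over half of replicate activation scores above 10%, or exactly half above 10 with the replicate mean above 10; inconclusive means replicate mean below 10 yet half the replicates above 10; inactive means over half of replicates below 10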;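 further: wells of about 30 µL received 50 nL stock; many hits fall short of the cut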
# UCH37 inh – blocks the human deubiquitinase UCH37 | Q9Y5K5 | purified proteasome/UCH37, Ub-AMC cleavage fluorescence | inhibition, % (concentration not given with the values) | actives 0.33% (n = 330,000);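 active means mean of two replicates above 20%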;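 further: 0% = compound-free wells with enzyme and 100% = wells lacking proteasome; stock transfer was 100 nL into about 20 µL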
# Target sequence (Q9Y5K5 whole entry, looked up): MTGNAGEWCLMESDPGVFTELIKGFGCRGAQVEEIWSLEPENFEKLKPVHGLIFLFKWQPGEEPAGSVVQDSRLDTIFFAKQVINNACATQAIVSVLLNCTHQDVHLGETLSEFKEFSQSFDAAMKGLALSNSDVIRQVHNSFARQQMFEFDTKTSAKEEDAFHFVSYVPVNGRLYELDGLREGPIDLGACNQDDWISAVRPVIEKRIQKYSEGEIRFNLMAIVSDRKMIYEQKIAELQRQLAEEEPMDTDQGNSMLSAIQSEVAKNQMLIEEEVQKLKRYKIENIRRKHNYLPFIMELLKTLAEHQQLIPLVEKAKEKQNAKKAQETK
#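 Schedule: 30 min plus 25 min, room temperature / Material: human UCH37 within purified proteasomes / Technique: AMC fluorescence intensity at 355/460 nm / Buffer or medium: pH 7.4 Tris-HCl (50 mM) with ovalbumin, ATP-MgCl2, DTT / Controls: wells without proteasome as full block, compound-free enzyme plus substrate as uninhibited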
# E coli growth – blocks Escherichia coli growth. OD600, 23 h; active compounds read low. actives 0.21% (n = 330,000). OD600 absorbance (test concentration not listed);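 active means OD600 absorbance below the run mean of sample wells minus 3.6 SD, in any replicate, cut at about 0.56 in these data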;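 further: stock transfer was 300 nL into about 60 µL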
# T cruzi inh – T. cruzi replication inhibition; actives 1.4% (n = 300,000); inhibition, % (concentration not given with the values); T. cruzi beta-gal in NIH3T3, luminescence, 90 h; AID 1885;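 active means mean inhibition across valid replicates above about 55%, limit read from the data; inconclusive means mean below that limit but half or more replicates reach it; inactive means mean below it, under half of replicates reach it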;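 further: signal also drops with host cell toxicity which is not excluded here; 0% = plate median of DMSO wells and 100% = zero luminescence signal; higher percent means less beta-gal luminescence so fewer parasites; stock transfer was 50 nL into about 50 µL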
# rRNA inh HTS – inhibitors of bacterial rRNA selective over humanized ribosomes; actives 1.6% (n = 350,000); E. coli WT GFP vs humanized-ribosome RFP mutants, fluorescence, 24 h; active compounds read low; DMSO median 0, no signal -100; GFP signal change (wild-type ribosome), % (test concentration not listed);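 active means significant combined selectivity score with lowered wild-type GFP, culture density cut under 30%, mutant RFP and density less affected; inactive means any of these conditions unmet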; further: one replicate is shown; some compounds called inactive have numbers as strong as hits
# AF4-AF9 inh – blocks AF4 peptide binding to human AF9; P42568; AlphaScreen, biotin-AF4 peptide binding to FLAG-AF9; inhibition, % at 10 µM; actives 0.47% (n = 350,000); AID 651704;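 active means every replicate reaching a set inhibition limit, whatever the replicate mean, cut at about 25% in these data; inconclusive means mean inhibition reaches that limit but some replicates miss it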;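 further: 0% = plate neutral control median and 100% = total signal loss; the record names both 10 and 1 µM as test concentration; the first replicate is given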
# Target sequence (P42568 whole entry, looked up): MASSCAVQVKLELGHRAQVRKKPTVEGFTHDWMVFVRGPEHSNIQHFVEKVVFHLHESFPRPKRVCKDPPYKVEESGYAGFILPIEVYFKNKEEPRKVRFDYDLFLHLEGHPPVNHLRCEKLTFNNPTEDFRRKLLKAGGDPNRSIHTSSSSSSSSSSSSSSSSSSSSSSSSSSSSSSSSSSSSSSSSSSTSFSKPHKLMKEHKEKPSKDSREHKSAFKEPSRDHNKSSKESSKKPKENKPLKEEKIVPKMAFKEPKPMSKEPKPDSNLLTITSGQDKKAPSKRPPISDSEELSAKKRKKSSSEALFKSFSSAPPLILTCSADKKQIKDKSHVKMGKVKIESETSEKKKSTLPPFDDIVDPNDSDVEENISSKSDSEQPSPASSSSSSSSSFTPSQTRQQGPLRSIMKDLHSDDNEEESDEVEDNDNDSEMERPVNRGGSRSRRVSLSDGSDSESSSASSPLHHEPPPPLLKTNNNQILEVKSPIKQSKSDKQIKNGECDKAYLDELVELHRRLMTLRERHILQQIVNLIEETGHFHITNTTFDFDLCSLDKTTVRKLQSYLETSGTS
# Beta cell apopt – blocks beta cell apoptosis. INS-1E cytokine-induced death, ATP luminescence, 48 h; percent of positive-control rescue, neutral wells zero. actives 0.8% (n = 300,000). protection from apoptosis, % (no concentration beside the values);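 active means all replicates at 75% or more, or half of them and the mean; inconclusive means half reach 75% but not the mean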;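 further: 0% = cytokine-treated negative control wells and 100% = positive control rescue; higher means more ATP so stronger rescue from cytokine killing; wells of about 40 µL received 100 nL stock; the first replicate is given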
# rRNA inh HTS OD600 – recorded beside rRNA inh HTS, whose call it bears; OD600 change, %; measured here: OD600 growth;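 optical density of the mix in the first replicate; 0 = DMSO median and -100 = no signal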
# rRNA inh HTS RFP – further read-out of rRNA inh HTS, marked with its call; RFP signal change, %; measured here: RFP humanized mutant strains;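 first replicate; 0 = DMSO median and -100 = no signal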
# An asterisk follows results filed as active; i = inactive; ? = inconclusive; · = no result given.
Structure	FGF22 binding	A1 inh	UCH37 inh	E coli growth	T cruzi inh	rRNA inh HTS	rRNA inh HTS OD600	rRNA inh HTS RFP	AF4-AF9 inh	Beta cell apopt
COc1cc(OC)c(OC)cc1/C=C(\C#N)C(=O)NCc1cccs1	i	0.2	-6.0	0.73	-6	-1	-6	-1.3	-16	-7
O=C(O)c1cc(-c2ccc(/C=N/NC(=S)Nc3ccccc3)o2)ccc1Cl	i	0.5	·	·	-6	5	5	2.9	-1.0	-5
CCOC(=O)c1[nH]c(C)c(CN(CCc2ccccc2)C(=O)CCC(=O)O)c1C	·	-0.2	6.5	0.74	1	·	·	·	·	-1
CCN1/C(=C2\SC(=S)N(Cc3ccccc3)C2=O)Sc2ccccc21	i	?	4.5	0.72	11	·	·	·	3.1	-3
O=C(CCC(=O)N1CCCC1)Nc1ccc([N+](=O)[O-])cc1	i	-0.6	1.8	0.71	-10	3	3	-2.6	-25	1
CCN(CC)CCn1c2c(c(SCC(=O)Nc3nc(C)cs3)nc1=O)CCCC2	i	0.0	3.0	0.63	9	12	17	1.2	-4.4	-5
O=S(=O)(c1cccc2cccnc12)N1CCN(c2ccc(F)cc2)CC1	i	0.8	4.2	0.66	2	11	10	3.4	-1.5	-2
O=C(NCC1CCCCC1)c1cc2ccccc2cc1O	i	-1.0	-0.3	0.64	4	-54	-82	-18	-0.1	-7
Cc1ccc(-n2ncc3c(NCc4cccnc4)ncnc32)cc1C	i	-0.6	-0.8	0.64	41	-8	-19	-5.6	0.8	5
Cc1nn(CCC(=O)NNC(=S)Nc2ccc(F)cc2)c(C)c1[N+](=O)[O-]	·	-0.4	6.6	0.66	-21	·	·	·	·	0
Nc1ccc(S(=O)(=O)Nc2ccnn2-c2ccccc2)cc1	i	0.2	1.8	0.69	-7	·	·	·	3.0	1
COC(=O)c1cccc(C23CC4(C2)[C@H](CN(Cc2ccc(C(F)(F)F)cc2)[C@@H]4c2ccccc2)C3c2ccc(C(F)(F)F)cc2)c1 (some centres undefined)	i	-1.6	1.3	·	2	10	7	-4.0	0.6	33

# The last five entries of the section before come first, to join the parts:
Structure	FGF22 binding	A1 inh	UCH37 inh	E coli growth	T cruzi inh	rRNA inh HTS	rRNA inh HTS OD600	rRNA inh HTS RFP	AF4-AF9 inh	Beta cell apopt
O=C(NCC1CCCCC1)c1cc2ccccc2cc1O	i	-1.0	-0.3	0.64	4	-54	-82	-18	-0.1	-7
Cc1ccc(-n2ncc3c(NCc4cccnc4)ncnc32)cc1C	i	-0.6	-0.8	0.64	41	-8	-19	-5.6	0.8	5
Cc1nn(CCC(=O)NNC(=S)Nc2ccc(F)cc2)c(C)c1[N+](=O)[O-]	·	-0.4	6.6	0.66	-21	·	·	·	·	0
Nc1ccc(S(=O)(=O)Nc2ccnn2-c2ccccc2)cc1	i	0.2	1.8	0.69	-7	·	·	·	3.0	1
COC(=O)c1cccc(C23CC4(C2)[C@H](CN(Cc2ccc(C(F)(F)F)cc2)[C@@H]4c2ccccc2)C3c2ccc(C(F)(F)F)cc2)c1 (some centres undefined)	i	-1.6	1.3	·	2	10	7	-4.0	0.6	33
CCN(CC)S(=O)(=O)c1ccc(C(=O)NCC(c2cccs2)N2CCOCC2)cc1 (centres undefined)	·	0.1	1.8	0.63	-3	·	·	·	·	-2
O=C(N/N=C/c1cccnc1)c1ccc(Cl)c(Cl)c1	i	-0.3	·	·	7	1	-7	1.2	-2.6	·
Cc1cccc(C(=O)Nc2ccc(O)cc2)c1	·	-12	-1.0	0.72	-2	·	·	·	·	-5
CCCCN(CCCNC(=O)c1ccc(CS(=O)(=O)c2ccc(OC)cc2)o1)Cc1ccccc1	i	1.3	-1.1	0.71	16	5	1	-0.9	4.2	-2
COc1ccc(NC(=O)CCCN2C(=O)/C(=C\c3ccco3)SC2=S)cc1	·	-0.3	2.2	0.69	1	·	·	·	·	-4
COc1ccc(Nc2nc(N3CCCC3)nc3ccccc23)c(OC)c1	·	-0.3	-2.1	0.63	65*	·	·	·	·	62
CC(=O)Nc1ccc(Nc2nc(-c3ccccc3)nc3ccccc23)cc1	i	-0.7	-86	0.68	7	-31	-32	-2.4	-0.2	12
CCN(CC)C(=O)C1CCCN(Cc2ccccc2C(F)(F)F)C1 (centres undefined)	·	0.6	2.3	0.7	-4	·	·	·	·	·
CN(C)c1ccc(C=Nc2ccc(N(C)C)cc2)cc1	·	0.6	5.5	0.78	3	·	·	·	·	16
O=C(N/N=C/c1ccc([N+](=O)[O-])cc1)c1cccnc1	i	-0.3	·	·	-1	8	13	-3.7	0.3	4
Cc1cc(O)cc(=O)n1Cc1ccccc1	i	0.2	4.7	0.62	-8	8	9	1.7	·	-4
CCSc1nnc(NC(=O)C2CCCCC2)s1	·	-1.3	0.9	0.68	-1	·	·	·	·	-12

# Individual results from the list:
# O=C(N/N=C/c1ccc([N+](=O)[O-])cc1)c1cccnc1 in Beta cell apopt reads 4
# CN(C)c1ccc(C=Nc2ccc(N(C)C)cc2)cc1 in T cruzi inh reads 3

# (next part)
Structure	FGF22 binding	A1 inh	UCH37 inh	E coli growth	T cruzi inh	rRNA inh HTS	rRNA inh HTS OD600	rRNA inh HTS RFP	AF4-AF9 inh	Beta cell apopt
O=C1NC2(CCCCCC2)C(=O)N1Cc1ccc(Cl)cc1Cl	i	0.1	3.6	0.71	34	13	20	4.3	0.1	-3
COC(=O)C(=Cc1ccccc1[N+](=O)[O-])C(=O)OC	i	1.1	5.2	0.67	-13	-1	10	0.5	-4.0	1
COc1ccc(CNC(=O)C2CCN(C(=O)[C@@H](CC(C)C)NC(=O)OC(C)(C)C)CC2)cc1	·	·	-1.3	0.76	-3	·	·	·	-1.4	·
COc1ccc(C2=NOC(C3(S(=O)(=O)c4ccccc4)CC(O)C3)C2)cc1 (centres undefined)	i	2.7	1.4	0.69	-8	-1	0	2.6	2.1	-5
COc1ccccc1/C=C/C=N/n1c(-c2cc(C)[nH]n2)n[nH]c1=S	i	0.8	·	·	1	8	16	7.5	-3.5	-3
COc1cccc(CN2CCN(C(=O)c3oc4c(F)cccc4c3C)CC2=O)c1	i	0.0	4.4	0.69	0	-25	-26	-1.1	2.2	-3
CN(CC(=O)Nc1ccc(F)cc1)C(=O)CN1C(=O)NC2(CCCc3ccccc32)C1=O (centres undefined)	i	-0.1	0.3	0.7	-11	8	4	1.6	0.8	0
Cc1cc(Nc2cc(Cl)cc(Cl)c2)nc(N)n1	i	2.4	9.0	0.59	14	-29	-42	-8.6	2.5	22
C=CCOc1c(OC)cc(/C=N/Nc2cccc(C(=O)O)c2)c(Br)c1Br	i	0.6	·	·	10	·	·	·	-1.3	-10
CC(=O)Cc1ccccc1OC(=O)c1ccco1	·	1.1	3.5	0.68	2	·	·	·	·	-5
CCCCN(C(=O)c1cccc(S(=O)(=O)N2CC(C)OC(C)C2)c1)c1c(N)n(CC(C)C)c(=O)[nH]c1=O (centres undefined)	i	0.1	-4.5	0.67	-5	13	10	2.6	0.3	-4
Cc1c(C(=O)N2CCOCC2)c(S(=O)(=O)N2CCN(c3ccc(Cl)cc3)CC2)c(C)n1C	i	-1.7	2.3	0.72	-5	11	8	0.1	4.4	·
CC(=O)c1ccc(NC(=S)N2CCN(CCO)CC2)cc1	i	0.4	2.6	0.64	-12	13	13	2.9	2.1	-1
COc1ccccc1NS(=O)(=O)c1cc(NC(=O)c2cccs2)ccc1N1CCCC1	i	-2.2	1.9	0.71	14	·	·	·	-2.7	38
COc1ccc(NC(=O)Cn2c(=O)sc3ccccc32)c(OC)c1	i	-0.2	1.6	0.66	2	6	11	1.5	-3.3	1
COC(=O)c1ccccc1NC1OC(=O)c2ccccc21 (centres undefined)	·	-0.5	-44	0.7	0	1	8	-5.3	·	-2
O=Cc1cccn1-c1nccc(-c2ccco2)n1	i	0.2	3.2	0.69	-13	1	-9	2.1	0.4	-3
Cc1ccc(NC(=O)c2cccs2)cc1	i	-4.4	2.2	0.6	-5	8	14	0.9	3.9	3
Cc1cccc(NC(=O)Cc2ccc(-c3ccccc3)cc2)n1	i	0.7	-2.1	0.65	32	2	4	1.1	0.9	0
CN(CC(=O)Nc1ccccc1Cl)C(=O)c1ccc(Cl)c(S(=O)(=O)N2CCCCCC2)c1	i	0.6	2.5	0.72	·	-28	-54	-5.9	0.4	-4
COc1ccc(CN(CCc2ccccc2)Cc2ccccc2)cc1OC	i	-0.5	3.7	0.67	45	-27	-42	-1.9	3.4	-1
O=C1CCC(=O)N1c1ccc(-c2nc3ccccc3s2)cc1	i	-7.7	0.2	0.71	-1	8	12	1.2	0.0	4
CC(C)CNC(=O)COC(=O)c1c2c(nc3ccccc13)/C(=C\c1cccs1)CC2	i	·	-50	0.68	·	24	21	12	-1.3	·
CCc1cc(=O)[nH]c(SCC(=O)N2CCOCC2)n1	i	-0.6	4.2	0.7	-8	4	4	0.6	-0.5	·

# Whole records as entered above. Order of screens: FGF22 binding	A1 inh	UCH37 inh	E coli growth	T cruzi inh	rRNA inh HTS	rRNA inh HTS OD600	rRNA inh HTS RFP	AF4-AF9 inh	Beta cell apopt
# CCCCN(C(=O)c1cccc(S(=O)(=O)N2CC(C)OC(C)C2)c1)c1c(N)n(CC(C)C)c(=O)[nH]c1=O (centres undefined) reads i	0.1	-4.5	0.67	-5	13	10	2.6	0.3	-4
# CCSc1nnc(NC(=O)C2CCCCC2)s1 reads ·	-1.3	0.9	0.68	-1	·	·	·	·	-12
# O=C(CCC(=O)N1CCCC1)Nc1ccc([N+](=O)[O-])cc1 reads i	-0.6	1.8	0.71	-10	3	3	-2.6	-25	1
# COc1ccccc1NS(=O)(=O)c1cc(NC(=O)c2cccs2)ccc1N1CCCC1 reads i	-2.2	1.9	0.71	14	·	·	·	-2.7	38
# COc1ccc(CN(CCc2ccccc2)Cc2ccccc2)cc1OC reads i	-0.5	3.7	0.67	45	-27	-42	-1.9	3.4	-1

# (next part)
Structure	FGF22 binding	A1 inh	UCH37 inh	E coli growth	T cruzi inh	rRNA inh HTS	rRNA inh HTS OD600	rRNA inh HTS RFP	AF4-AF9 inh	Beta cell apopt
COc1ccc(NC(=S)N2CCOCC2)c(OC)c1	·	-0.4	3.5	0.68	-4	·	·	·	·	-3
O=C(NCc1cccs1)c1cc(-c2ccccc2)on1	·	-1.9	-2.0	0.7	10	·	·	·	·	3
CNc1ccc(Br)cc(C(=O)/C=C/c2ccc3c(c2)OCO3)c1=O	·	0.7	3.1	0.69	-10	·	·	·	·	-2
CCOC(=O)c1ccccc1-n1c(C)cc(C2N=C(N)Nc3nc4ccccc4n32)c1C (centres undefined)	i	0.2	0.8	0.58	16	-18	-21	34	25*	-6

# Only part of the results is shown (hit frequency here may not be typical).
